# GIV-Gai inh: GIV-Galpha-i interaction inhibition | Galpha-i3/FITC-GIV peptide fluorescence polarization, 90 min; hits give low values; scaled: aluminum fluoride 0%, vehicle 100% | percent of control (FP), % (concentration not given with the values) | hit rate 0.42% among 210,000 | AID 1224905 | P08753;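 active = replicate mean at 85% of control or lower, very high polarization wells dropped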;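 also: wells of about 15 µL received 100 nL stock; the first replicate is given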
# Target sequence (P08753 whole entry, looked up): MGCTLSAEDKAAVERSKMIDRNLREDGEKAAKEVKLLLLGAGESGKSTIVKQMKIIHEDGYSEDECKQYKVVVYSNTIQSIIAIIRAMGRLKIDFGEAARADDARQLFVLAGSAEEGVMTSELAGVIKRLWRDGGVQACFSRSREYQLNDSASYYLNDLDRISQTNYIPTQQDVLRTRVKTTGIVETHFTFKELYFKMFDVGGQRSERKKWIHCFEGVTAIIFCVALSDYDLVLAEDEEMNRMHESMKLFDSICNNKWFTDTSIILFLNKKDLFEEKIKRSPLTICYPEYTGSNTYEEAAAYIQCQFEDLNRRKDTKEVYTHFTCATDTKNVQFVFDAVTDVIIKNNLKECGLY
# Sa growth 42C: inhibitors of Staphylococcus aureus growth at 42 °C | relative growth, % (concentration not given with the values) | hit rate 0.53% among 170,000 | S. aureus RN4220 growth, OD600, 20 h; hits give low values | AID 720641;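 active = growth at 42 °C up to 50% and 20 or more points under that at 30 °C, or under 10% at both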;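 also: 300 nL library stock went into each well; scaled to the means of positive and negative controls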
# HCMV NEC inh: disrupts HCMV UL50-UL53 complex binding | hit rate 0.15% among 190,000 | inhibition, % (concentration not given with the values) | HTRF UL50-UL53 interaction, normalized percent inhibition | AID 1918969;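 active = both replicates at 50% or more, plus weaker picks with an unusually low signal ratio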;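 also: stock transfer was 100 nL into about 20 µL; 0% = negative control wells and 100% = wells with untagged competitor protein; inactives centre near -12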
# Sa growth 42C second temp: also measured in Sa growth 42C; calls as there; relative growth, %; measured here: growth at 30 °C;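 optical density after 20 h as mean of two plates; 100% = untreated growth and lower means inhibition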
# * hit, by the source's call; · = no result given; & = joins results of further samples.
Compound,GIV-Gai inh,Sa growth 42C,Sa growth 42C second temp,HCMV NEC inh
Cc1ccc2oc(-c3cccc(NC(=O)c4cccc5c(Br)cccc45)c3)nc2c1,108,100,103,13
COc1ccccc1NC(=O)NCc1c(-n2cccc2)sc2c1CCN(C)C2,100,·,·,-4
CCCCN(CC)C(=O)c1ccc(Cl)c(Cl)c1,100,105,103,-1
CCN=c1scc(C)n1/N=C/c1ccc2c(c1)OCCO2,·,97,98,-34
C=CCNC(=S)N(Cc1ccccc1O)CC1CCCO1 (stereo not given),·,96,85,-5
CCOC(=O)N1CCc2c(sc3c2c(=O)n(Cc2ccccc2)c(=O)n3CC(=O)NC(C)CC)C1 (stereo not given),100,79,91,·
O=C(NCc1csc2ccc(Cl)cc12)c1ccc(C(F)(F)F)cc1,102,77,86,-35
CC1CCC(NC(=O)Cn2nc(Cc3ccncc3)c3ccccc3c2=O)CC1 (stereo not given),99,99,92,5
Cn1nccc1C(=O)N1CCC(c2nc(-c3ccc(F)cc3)no2)CC1,96,·,·,-8
CCc1nc2ccccc2c(C(=O)OCC(=O)NCc2ccccc2)c1C,·,72,95,-4
CCCCOc1ccc(C(=O)Nc2ccc(S(=O)(=O)Nc3nc(C)cc(C)n3)cc2)cc1,108,82,85,-24
Cc1ccc(C(=O)NC2CCSC2=O)cc1 (stereo not given),100,101,94,-7

# Other results follow.
Compound,GIV-Gai inh,Sa growth 42C,Sa growth 42C second temp,HCMV NEC inh
Cc1c(-c2cc(C(=O)NC3CC3)c3ccccc3n2)cnn1-c1ccc(C(C)C)cc1,101,·,·,-43
CCc1sc(Nc2cccc(C)c2)nc1-c1cc2cccc(OC)c2oc1=O,103,98,76,·
CCc1ccccc1NC(=O)C(CC)n1c2ccccc2c2nc(=O)cc(C)n21 (stereo not given),102,92,87,·
Cc1ccc(CC/C=N/NC(N)=S)o1,94,77,100,-15
O=C(O)Cc1ccsc1,·,89,91,-12
Cc1ccc(-n2nc3ccc(NC(=O)Cc4ccc(Cl)cc4)cc3n2)cc1,108,107,81,-36
CCN1CCc2c(sc(N)c2C(=O)OC)C1,107,100,96,·
CCOC(=O)N1CCN(S(=O)(=O)N2CCCC(C(=O)NCc3ccccc3OC)C2)CC1 (stereo not given),103,120,90,·
Cc1c(O)c(C(=O)c2nn[nH]n2)c(=O)n(-c2ccccc2)c1-c1ccccc1,104,103,99,-18
CCOc1ccc(CCNC(=O)c2cc3c(-c4ccccc4F)nn(C)c3s2)cc1OCC,101,96,86,-32
COc1cccc(NC(=O)Cn2nc(-c3ccccc3)c3cc(Cl)ccc32)c1,105,·,·,11
Cc1ccc(-n2ncc3c2ncn2nc(Cc4ccccc4)nc32)cc1,104,92,89,·

# Next entries.
Compound,GIV-Gai inh,Sa growth 42C,Sa growth 42C second temp,HCMV NEC inh
O=C1CSC(=O)N1CC(O)Cn1c2ccccc2c2ccccc21 (stereo not given),87,104,108,8
CC(=O)Nc1ccc(C(=O)OCC(=O)c2ccc3c(c2)OCCO3)cc1,·,81,90,-2
COc1ccc(C)cc1NS(=O)(=O)c1ccc2c(c1)n(C)c(=O)n2C,105,93,89,-26
COc1ccc(-c2noc(N3CCc4ccccc4C3)n2)cc1,98,101,96,4
Cc1ccc2c(c1)NC(c1ccc(C(=O)O)cc1)c1cccn1-2 (stereo not given),108,86,83,-10
Cc1ccc(C)c(CN2C(=O)c3ccccc3S(=O)(=O)c3ccc(C(=O)NCCN(C)C)cc32)c1,98,109,93,·
S=c1cc(-c2ccccc2)sc2ccccc12,·,103,83,-39
CCn1c(SCC(=O)OCC(=O)N=c2sccn2Cc2ccc(C)cc2)nnc1-c1ccco1,·,77,87,-35
O=C(O)c1ccc(-c2cn3cccnc3n2)cc1,91,104,88,-61
COc1ccc2oc(=O)cc(CN3CCN(c4ccccc4F)CC3)c2c1,98,97,87,-35
CC(=O)OCC(=O)NCCCOc1cccc(CN2CCCCC2)c1,103,103&97,95&84,-30&-17&-86&-24&-65
COc1ccc(-c2[nH]ncc2Oc2ccccc2)c(O)c1,101,70,15,-4

# The closing 2 entries of the section before open the next one.
Compound,GIV-Gai inh,Sa growth 42C,Sa growth 42C second temp,HCMV NEC inh
CC(=O)OCC(=O)NCCCOc1cccc(CN2CCCCC2)c1,103,103&97,95&84,-30&-17&-86&-24&-65
COc1ccc(-c2[nH]ncc2Oc2ccccc2)c(O)c1,101,70,15,-4
Cc1ccc(CNC(=O)CN(c2ccc(C(C)C)cc2)S(=O)(=O)c2c(C)n[nH]c2C)cc1,106,101,84,-42
NCCN1C(=O)S/C(=C\c2ccc(Cl)c(Cl)c2)C1=O,·,-0.6*,-0.2*,4
COc1ccc(N=Cc2cc(Br)ccc2O)c(S(=O)(=O)N2CCOCC2)c1,·,83,89,-26
Cc1ccc(NC(=O)c2cccc(NC3=NC4CS(=O)(=O)CC4S3)c2)cc1 (stereo not given),104,·,·,-31
CCOC(=O)CSc1nc2sc3c(c2c(=O)n1-c1ccccc1)CCN(C)C3,108,·,·,-28
Cc1cccc(C#Cc2ccccc2)n1,100,·,·,-6&-18&-13
COc1cccc(NC(=O)NCCCNc2nc3cc(C)cc(C)c3cc2C#N)c1,104,104,99,4
CCc1ccccc1N1CC(c2nc3ccccc3n2CCCOc2ccc(Cl)cc2)CC1=O (stereo not given),104,79,40,-9
COc1ccc(/C=C2\CN(C)CC3=C2OC(N)=C(C#N)C3c2ccc(OC)c(OC)c2)cc1OC (stereo not given),135,·,·,-72
Cc1ccc(NC2(C#N)C(=O)Nc3ccccc32)cc1C (stereo not given),99,79,71,-30
COc1ccccc1-c1cc(C(=O)N2CCCC2c2ccc(Cl)cc2)no1 (stereo not given),110,·,·,-25
Cc1nnc(SCN2C(=O)c3ccccc3C2=O)n(N)c1=O,·,112,106,-11

# Additional entries.
Compound,GIV-Gai inh,Sa growth 42C,Sa growth 42C second temp,HCMV NEC inh
COc1ccc(/C=C/C(=O)OCC(=O)N2CC(C)CC(C)C2)cc1 (stereo not given),·,91,87,-69
COC(=O)CSc1nnc(C2CCCCC2)n1Cc1ccccc1,103,96,119,9
CC1(C)CC2CC(C)(CN2C(=O)CSc2nn3c(=O)c(C(C)(C)C)nnc3s2)C1 (stereo not given),·,87,92,-14
CC1(C)C2CC[C@@](C)(C2)C1NS(=O)(=O)c1ccc(-c2cc(C(F)(F)F)on2)s1 (stereo not given in full),102,98,79,-35
Cc1onc(-c2ccccc2Cl)c1C1=NCCO1,98,86,84,-12
CC1CN(c2ccccc2)NC1=O (stereo not given),97,66,47,·
CCSC1=C(C#N)C(=O)NC(/C=C/c2ccccc2)S1 (stereo not given),101,109,87,·
COc1cc2cc(C(=O)O)cc(-c3ccc(C)cc3)c2cc1OC,103,104,78,·
CCC(=O)N1CCc2cc(Br)cc(S(=O)(=O)N(CC)Cc3ccccc3)c21,101,125,89,-3
CN1CCC(N(C)C(=O)COc2ccccc2Cl)CC1,·,102,86,-22
Nc1ncnc2c1ncn2CCNCc1ccccc1,99,86,92,·
Cc1ccc(-n2c(SCC3NS(=O)(=O)N=C4CCCCCN43)nnc2-c2ccccc2)cc1C (stereo not given),·,86,98,17

# Next entries follow.
Compound,GIV-Gai inh,Sa growth 42C,Sa growth 42C second temp,HCMV NEC inh
c1c2c(cc3sc(N4CCCCC4)nc13)OCCO2,101,96,96,-17
COC(=O)c1ccc(-n2c(CCC(=O)O)ccc2-c2ccccc2)cc1,103,·,·,8
c1ccc(CC2CCN(c3nnc(Cc4ccncc4)c4ccccc34)CC2)cc1,99,·,·,-18
COCc1cc(C)nc2sc(C(=O)Nc3ccc(S(N)(=O)=O)cc3)c(N)c12,104,99,84,-102
CC(C)(C)C(=O)Cn1c(=O)n(CCCCCC(=O)NCc2ccccc2Cl)c(=O)c2sccc21,107,100,88,2
COc1ccc(C=C2C(=O)N(C)C(=S)N(C)C2=O)c(C)c1,106,105,36,·
CCOC(=O)c1cc(S(=O)(=O)N(C)CC(=O)NC2CCCC2)cn1C,101,·,·,-22
COc1ccc(NC(=O)CCS(=O)(=O)c2ccc3c(c2)CCN3C(C)=O)c(OC)c1,103,·,·,-4
O=C1CN(Cc2ccccc2)CC(=O)N1CCc1ccccc1,102,89,81,-14
CC(C)Cn1c(CC(C)(C)C)nc2ccccc21,109,108,78,-3
CCc1ccc(NC(=O)NCCn2c(-c3ccc(F)cc3)nc3cccnc32)cc1,109,·,·,-10
O=C(COC(=O)C1=COCCO1)Nc1ccc2[nH]c(=O)[nH]c2c1,·,96,90,-8

# 4 entries from above, with two lines to a compound.
# The line under a structure holds: GIV-Gai inh	Sa growth 42C	Sa growth 42C second temp	HCMV NEC inh
c1c2c(cc3sc(N4CCCCC4)nc13)OCCO2
  101	96	96	-17
COC(=O)c1ccc(-n2c(CCC(=O)O)ccc2-c2ccccc2)cc1
  103	·	·	8
c1ccc(CC2CCN(c3nnc(Cc4ccncc4)c4ccccc34)CC2)cc1
  99	·	·	-18
COCc1cc(C)nc2sc(C(=O)Nc3ccc(S(N)(=O)=O)cc3)c(N)c12
  104	99	84	-102

# (further entries)
Compound,GIV-Gai inh,Sa growth 42C,Sa growth 42C second temp,HCMV NEC inh
COc1ccc(-c2cc(C(F)(F)F)n3nc(C(=O)NCCN4CCOCC4)c(Cl)c3n2)cc1,100,·,·,-22
O=C(O)C1C2CC=CC2c2cc(Cl)cc3c2N1CC1CC=CC31 (stereo not given),101,87,52,·
Cc1ccc(Cn2nc(C)c(NC(=O)c3cc(-c4ccc(F)cc4)on3)c2C)cc1,105,114,88,-17
CC(C)CC(=O)Nc1cc(-c2ccccc2F)nn1-c1ccccc1,107,85,92,·
CCCn1cnc2cc(NCc3cccs3)ccc21,103,114,84,·
NS(=O)(=O)c1ccc(CCNC(=O)Cn2c(=O)c3cccn3c3ccc(F)cc32)cc1,99&103,94,84,-24&-6
COc1ccc(CN2CCc3c([nH]c4ccccc34)C2)cc1,104,116,95,-26
CN(C)C1(CNC(=O)C2=NN(C3CCS(=O)(=O)C3)C(=O)CC2)CCCCC1 (stereo not given),·,71,95,-20
CCC(=O)Nc1ccc(S(=O)(=O)NCc2ccc3c(c2)CCN3C(=O)c2ccc(C)cc2)cc1,106,88,88,·
CC(C)c1ccc(S(=O)(=O)c2nnn3c2nc(N2CCCCC2)c2sccc23)cc1,99,83,79,·
CC(=O)NC(=C(C)C)c1ccccc1,105,108,97,4
CC(C)CCNS(=O)(=O)c1ccc(N2CCCCS2(=O)=O)cc1,99,104,91,·

# Continued:
Compound,GIV-Gai inh,Sa growth 42C,Sa growth 42C second temp,HCMV NEC inh
CCC(CO)NCC(O)CN1c2ccccc2Sc2ccccc21 (stereo not given),98,115,71,4&-4
O=S(=O)(c1ccc(O)cc1)N1CCOCC1,·,96,88,-30
Cc1ccc(CNC(=O)CCC(=O)N2CCSc3ccccc32)cc1,105,100,96,·
CC(=O)Nc1ccccc1C(=O)c1n[nH]nc1-c1ccc(Cl)cc1,·,95,80,-34
CCN(CC)C(=O)CSc1c2c(nc3ccc(Cl)cc13)CCCC2,103,93,80,·
CC(C)OC(=O)Cn1c(=O)oc2ccccc21,·,89,90,-14
Cc1ccccc1Nc1cc(C)c(C#N)c2nc3ccccc3n12,·,1.2*,0.3*,-16
COC(=O)c1ccc(OCC2c3cc(OC)c(OC)cc3CCN2C(=O)c2ccccc2)cc1 (stereo not given),103,88,73,·
CCOc1cc(/C=C2/C(=O)N(c3ccc(Cl)c(Cl)c3)N=C2C)ccc1OC(C)=O,107,·,·,-18
O=c1[nH]cc(S(=O)(=O)N2CCCCC2)c(=O)[nH]1,105,·,·,-20
CCC1CCC(C(=O)NC(C(=O)Nc2ccc(OC)cc2)C(C)C)CC1 (stereo not given),106&104,101,86,-7&-26
Cc1cc(C)c(NS(=O)(=O)c2c(C)cc(N3C(=O)CCS3(=O)=O)cc2C)c(C)c1,110,·,·,-19

# In another format: entries from further up.
CCC1CCC(C(=O)NC(C(=O)Nc2ccc(OC)cc2)C(C)C)CC1 (stereo not given)
  GIV-Gai inh: 106&104	Sa growth 42C: 101	Sa growth 42C second temp: 86	HCMV NEC inh: -7&-26

Cc1cc(C)c(NS(=O)(=O)c2c(C)cc(N3C(=O)CCS3(=O)=O)cc2C)c(C)c1
  GIV-Gai inh: 110	Sa growth 42C: ·	Sa growth 42C second temp: ·	HCMV NEC inh: -19
